Compound activity deposited in PubChem BioAssay by several laboratories.
RanGTP-Impb inh: disruptors of Ran-importin-beta complex formation – biochemical, FRET, CFP-Ran, YFP-importin-beta, homogeneous, primary screen. cell-free CFP-Ran/YFP-importin-beta FRET ratio. inhibition, % (test concentration not listed). 1.1% of 300,000 active. AID 2216;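 active = most replicates above 15%; inconclusive = exactly half above 15%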;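 note: 0% = DMSO wells and 100% = Ran loaded with GDP instead of GTP; wells of about 40 µL received 100 nL stock; the first replicate is given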
HNF4A DNA FP: change in binding of human HNF4 alpha to DNA. P41235. HNF4a-FITC DNA binding, fluorescence polarization, 1 h. activity change, % at 10 µM. 0.3% of 360,000 active. AID 1224865; in the data active = activity change above about 30%, passing the limit was not always enough;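 note: controls were the assay level and a saturating level of protein; the project sought stronger binding though the title names inhibitors; some compounds called inactive have numbers as strong as hits; positive values seem to mean higher polarization but the record does not say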
LANA-H2A inh: blocks KSHV LANA binding to histone H2A/H2B; Q9QR71; AID 2629; cell-free LANA-H2A/H2B peptide, fluorescence polarization; inhibition, % (concentration not given with the values); 0.6% of 320,000 active; in the data active = inhibition mostly above about 10%, no sharp cut-off; inactive = mostly below about 6.7%;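 note: stock transfer was 7.5 nL into about 10 µL; 0% = median of vehicle wells and 100% = median of positive control wells; one replicate is shown; the record names a cut of 25% in any replicate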
Target sequence (Q9QR71 whole entry, looked up): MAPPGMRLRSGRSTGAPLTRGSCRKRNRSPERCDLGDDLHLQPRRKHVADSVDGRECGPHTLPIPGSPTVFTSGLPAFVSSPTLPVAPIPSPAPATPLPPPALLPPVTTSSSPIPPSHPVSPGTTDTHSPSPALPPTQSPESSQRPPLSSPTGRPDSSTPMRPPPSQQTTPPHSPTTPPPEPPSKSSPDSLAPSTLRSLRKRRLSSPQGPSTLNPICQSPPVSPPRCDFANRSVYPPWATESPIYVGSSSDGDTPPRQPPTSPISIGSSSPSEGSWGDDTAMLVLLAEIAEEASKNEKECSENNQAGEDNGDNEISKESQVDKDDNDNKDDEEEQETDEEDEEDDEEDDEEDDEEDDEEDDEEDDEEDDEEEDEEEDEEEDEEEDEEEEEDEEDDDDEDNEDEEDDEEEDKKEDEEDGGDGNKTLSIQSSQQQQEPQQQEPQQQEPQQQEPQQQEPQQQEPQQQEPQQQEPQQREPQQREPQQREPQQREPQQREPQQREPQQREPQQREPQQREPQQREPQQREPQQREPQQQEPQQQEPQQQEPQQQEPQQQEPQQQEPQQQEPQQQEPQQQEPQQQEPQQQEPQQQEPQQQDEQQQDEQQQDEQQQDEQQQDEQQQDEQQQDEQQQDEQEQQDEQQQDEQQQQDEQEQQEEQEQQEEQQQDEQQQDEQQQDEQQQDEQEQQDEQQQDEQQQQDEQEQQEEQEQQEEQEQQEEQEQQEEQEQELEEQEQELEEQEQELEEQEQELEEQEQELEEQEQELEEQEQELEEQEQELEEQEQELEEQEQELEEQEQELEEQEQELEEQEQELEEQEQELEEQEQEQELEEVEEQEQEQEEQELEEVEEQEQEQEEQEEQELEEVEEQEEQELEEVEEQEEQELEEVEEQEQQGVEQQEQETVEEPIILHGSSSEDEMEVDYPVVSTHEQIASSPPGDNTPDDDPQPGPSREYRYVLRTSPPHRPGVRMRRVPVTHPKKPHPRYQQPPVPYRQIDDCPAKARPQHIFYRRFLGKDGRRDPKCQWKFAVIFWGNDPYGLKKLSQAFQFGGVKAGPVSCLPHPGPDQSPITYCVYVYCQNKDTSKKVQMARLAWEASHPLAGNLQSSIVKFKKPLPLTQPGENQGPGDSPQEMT
Vif A3G: inhibitors of Vif binding to APOBEC3G peptide, primary screen, biochemical, TR-FRET, GST-Vif 1-94, biotin-A3G peptide, dose response retest (AID 1117319). TR-FRET GST-Vif / biotin-A3G peptide binding; higher % means a stronger effect; test concentration not given here; strong numbers were not always called active. one-dose inhibition, %; IC50 in µM for titrated hits. 0.57% of 260,000 active;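 active = above the screen mean plus three standard deviations and confirmed in dose response; inconclusive = results disagree or hit not tested in dose response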;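 note: Vif residues 1-94 fused to GST binding biotinylated APOBEC3G peptide 110-148; 0% = full assay without inhibitor and 100% = GST in place of GST-Vif; retest series ran down from 100 µM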
ALR H2O2 inh: inhibitors of human sulfhydryl oxidase ALR; 3.8% of 290,000 active; AID 485317; inhibition, % (concentration not given with the values); purified ALR, DTT oxidation, H2O2 HRP-luminol luminescence;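 active = mean and each replicate at 75% or more; inconclusive = only one of the two met; inactive = neither met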;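 note: stock transfer was 7.5 nL into about 7.5 µL; 0% = neutral wells and 100% = wells with inactivated enzyme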
Beta2AR agonist: agonists of human beta-2 adrenergic receptor inducing internalization. 0.43% of 340,000 active. AID 504454. Am2.2-beta2AR cells, FAP receptor internalization, flow cytometry; reference of the scale not given here. response, % (concentration not given with the values). P07550;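 active = response above a set limit, near 3 SD of response in nonfluorescent compounds, cut at about 42% in these data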;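 note: stock transfer was 100 nL into about 11 µL; a reference agonist was the positive control; negative values mostly stem from fluorescent compounds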
Calb FLC: affects C. albicans growth with fluconazole. C. albicans CaCi-2 (fluconazole-resistant clinical isolate) + fluconazole, Alamar Blue growth, 48 h. growth inhibition, % (concentration not given with the values). 0.57% of 300,000 active;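 active = most replicates above 75%; inconclusive = exactly half above 75%; inactive = most below 75%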;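 note: all wells also contain fluconazole at 8 µg/ml as a sub-toxic cotreatment; 0% = median of DMSO wells and 100% = median of geldanamycin control wells; wells of about 8 µL received 7.5 nL stock; the first replicate is given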
Active calls of the source: *; ? = inconclusive; · = not tested or not shown. Random draw from the library; 6.3% or so of the library scored in one or more.

SMILES	RanGTP-Impb inh	HNF4A DNA FP	LANA-H2A inh	Vif A3G	ALR H2O2 inh	Beta2AR agonist	Calb FLC
COc1cc(CCC(=O)NCc2ccc3c(c2)OCO3)cc(OC)c1OC	4.1	0.8	-3.7	-3%	1	-6	-7
O=C(Nc1c(C(=O)c2ccccc2)oc2ccccc12)c1cc(-c2ccccc2O)n[nH]1	5.6	2.8	-4.9	7%	-7	-8	-3
Cc1cc(C)cc(NC(=O)N2CCN(Cc3ccc4c(c3)OCO4)CC2)c1	-6.5	1.0	1.3	14%	-6	-8	-34
COc1ccc(NC(=O)CSc2nnc(-c3ccc(F)cc3)o2)cn1	·	-6.5	7.2	·	·	4	·
CCOC(=O)C(=O)c1c(C)cc2ccccn12	·	0.0	·	0%	·	-2	·
CSCCC(NC(=O)c1ccccc1Br)C(=O)NCc1ccc(F)cc1 (stereo not given)	-1.0	1.8	-0.6	-9%	-3	-4	-12
CCCn1c(N)c(N2CCCCC2)c(=O)n(CC(=O)Nc2cccc(S(=O)(=O)N(C)C)c2)c1=O	·	4.8	-11	·	·	-11	·
Cn1c(CC(=O)Nc2ccccc2F)nnc1SCC(=O)Nc1ccccc1Br	0.2	-3.2	5.2	·	4	-9	-2
CCN1C(=O)/C(=C\c2ccc(-c3ccc([N+](=O)[O-])cc3OC)o2)SC1=Nc1cccc(C(=O)O)c1	1.6	0.7	·	·	·	8	?
CC1CCN(CC(=O)Nc2cccc(C(=O)Nc3cccc(C(F)(F)F)c3)c2)CC1	5.5	2.4	-2.0	·	-35	6	-7
COc1cccc(N2CC(C(=O)Nc3nnc(SCC(=O)Nc4ccc(NC(C)=O)cc4)s3)CC2=O)c1 (stereo not given)	0.9	0.8	5.0	-5%	-25	-2	6
Nc1c(N(CCC2=CCCCC2)C(=O)CCCOc2ccccc2)c(=O)[nH]c(=O)n1Cc1ccccc1	-0.4	-2.8	1.1	-6%	-5	-2	-6
COc1ccc(/C=C/C(=O)OCC(=O)NCCC2=CCCCC2)cc1OC	4.3	1.5	-0.3	0%	38	-8	-25
C/C(=C\c1ccccc1)C(=O)N1CCN(c2cccc(C(F)(F)F)c2)CC1	2.6	2.0	-0.5	·	0	-2	20
Cc1cc([N+](=O)[O-])ccc1NC(=O)CSc1nnc(C)n1C	?	0.2	0.9	·	5	10	-2
COC(=O)CCC(=O)Nc1ccc(NC(=O)CCC(=O)OC)cc1	-1.4	-1.0	2.2	23%	-6	4	-1
O=C(NNS(=O)(=O)c1ccc(Cl)cc1)c1cc(-c2ccccc2)n[nH]1	0.4	3.2	-4.7	18%	9	3	-8
O=C(NCC(=O)N1CCCCC1)c1sc2ccccc2c1Cl	·	-1.0	-0.5	-6%	2	-9	·
Oc1ccccc1CN1CCN(C(c2ccccc2)c2ccccc2)CC1	-0.7	1.6	-1.2	·	1	8	-4
COc1cccc(N2CCN(C(=O)c3ccc(Cl)c(NC4=NC5CS(=O)(=O)CC5S4)c3)CC2)c1 (stereo not given)	1.4	-1.1	0.6	·	41	-4	4
COc1cc(/C=C2/CCCC(C(=O)C(F)(F)F)=C2O)ccc1O	0.4	1.9	0.7	10%	·	21	1
COc1ccc(OC)c(NC(=O)c2cc(-c3cc(Cl)ccc3O)n[nH]2)c1	-1.0	-1.4	-2.4	-3%	·	22	-46
O=C(Nc1ncn[nH]1)c1ccc(Cl)c(Cl)c1	·	-0.9	·	-5%	·	12	·
O=C(Cc1ccccc1Cl)Nc1cccnc1	1.6	-0.8	2.0	-6%	-2	-5	4
CC(NC(=O)Cn1nnc(-c2ccncc2)n1)c1ccccc1 (stereo not given)	0.5	·	·	0%	·	·	-1

4 entries already listed, arranged by heavy-atom count, ascending.
SMILES	RanGTP-Impb inh	HNF4A DNA FP	LANA-H2A inh	Vif A3G	ALR H2O2 inh	Beta2AR agonist	Calb FLC
COc1ccc(OC)c(NC(=O)c2cc(-c3cc(Cl)ccc3O)n[nH]2)c1	-1.0	-1.4	-2.4	-3%	·	22	-46
Cc1cc(C)cc(NC(=O)N2CCN(Cc3ccc4c(c3)OCO4)CC2)c1	-6.5	1.0	1.3	14%	-6	-8	-34
Cn1c(CC(=O)Nc2ccccc2F)nnc1SCC(=O)Nc1ccccc1Br	0.2	-3.2	5.2	·	4	-9	-2
COc1cccc(N2CCN(C(=O)c3ccc(Cl)c(NC4=NC5CS(=O)(=O)CC5S4)c3)CC2)c1 (stereo not given)	1.4	-1.1	0.6	·	41	-4	4

Continuation.
SMILES	RanGTP-Impb inh	HNF4A DNA FP	LANA-H2A inh	Vif A3G	ALR H2O2 inh	Beta2AR agonist	Calb FLC
CC(=O)c1cccc(CN2CCc3ccc(NC(=O)C4CCCO4)cc3C2)c1 (stereo not given)	1.5	-1.3	-0.5	·	-5	-17	8
CCOC(=O)C1(Cc2ccccc2C)CCCN(C(=O)c2ccccn2)C1 (stereo not given)	2.3	2.7	9.6	4%	-20	0	-30
Cc1cc(C)nc(N/N=C/c2cc3c(cc2[N+](=O)[O-])OCO3)n1	-4.3	0.7	-1.3	0%	-2	-3	?
C[C@H](CO)N1C[C@H](C)[C@@H](CN(C)C(=O)Nc2ccc3c(c2)OCO3)Oc2ccc(NC(=O)Nc3ccc(C(F)(F)F)cc3)cc2C1=O	·	3.4	2.0	·	-3	5	·
OCCCn1c(C(CO)Nc2nc(-c3ccc(Cl)cc3)cs2)nc2ccccc21 (stereo not given)	-1.2	2.2	-4.4	·	-13	4	-14
Clc1ccccc1-c1nnc2sc(-c3ccc4c(c3)OCO4)nn12	-1.1	-2.5	-5.0	-6%	-3	2	37
Cc1ccc(C(=O)Nc2nnc(C3CCCCC3)s2)o1	1.4	4.3	1.3	5%	49	5	20
COCCOc1cc(-n2ccnc2SC)c(Cl)cc1Cl	1.7	-0.9	-1.5	30%	-26	-5	9
COC(C(=O)N/N=C(\C)c1ccc(O)cc1)c1ccccc1 (stereo not given)	4.8	2.9	0.7	12%	98*	4	0
CC1CN(C(=O)c2ccccc2Oc2ccccc2)CC(C)O1 (stereo not given)	1.4	1.6	-4.0	·	·	-2	-23
COc1ccc(/C=C2\SC(N3CCc4ccccc4C3)=NC2=O)cc1OC	0.2	-1.3	1.6	·	-9	4	-1
CCNC(=O)CC1S/C(=N/N=C(\C)c2ccccc2)NC1=O (stereo not given)	-0.9	5.7	0.7	·	-1	0	-8
CCOC(=O)C1=C(C)NC(C)=C(C(=O)OCC)C1C(=O)OCC(=O)NC(C)c1ccccc1 (stereo not given)	·	1.4	·	1%	·	5	·
Cc1ccc(C(=O)n2cnnc2N)cc1	2.6	1.0	-2.3	5%	42	-2	-3
CC1CCN(C(=O)COC(=O)c2cc(=O)[nH]c3ccccc23)CC1	·	-5.9	2.1	-14%	3	-2	·
COc1ccccc1C1=NOC(COC(=O)c2ccc3ccccc3n2)C1 (stereo not given)	3.8	1.1	0.9	22%	-4	2	1
O=C(COC(=O)c1cc[n+]([O-])cc1)NCC12CC3CC(CC(C3)C1)C2	4.0	5.4	0.1	?	1	-11	-17
COCCn1c(-c2ccc(Cl)cc2)nc2oc3cc(OC)ccc3c(=O)c2c1=O	2.3	2.5	-3.2	2%	-4	-6	-8
NS(=O)(=O)c1ccc(NC(=O)c2ccc3nccnc3c2)cc1	-1.5	-0.2	2.5	-2%	-14	3	3
Cc1ccc2c(c1)NC(=O)C(CC(=O)NCCN(CC(C)C)CC(C)C)O2 (stereo not given)	-1.4	-0.3	3.2	3%	-5	14	-5
COc1ccc(S(=O)(=O)N(C)CC(=O)N2CCN(c3ccccc3)CC2)cc1	2.4	-1.5	-4.1	-5%	62	-15	16
CC(C)C(=O)Nc1ccc(C(=O)CSc2nnc(C3CC3)n2C2CC2)cc1	·	-0.3	2.6	5%	28	-4	·
Cc1nnc(SCC(=O)NNC(=O)c2ccc(Br)cc2)n1C	-4.3	-2.5	4.3	0%	-4	3	-8
COc1ccc(-c2n[nH]c(C)c2-c2cscn2)c(O)c1	1.2	-2.4	-7.2	-7%	-35	-3	-6
O=C(Nc1ccccc1)NN1CC(=O)N(c2ccc(Cl)cc2)CC1=O	2.2	0.4	0.6	5%	1	-1	7

Compound profiles (already shown). Order of values: RanGTP-Impb inh, HNF4A DNA FP, LANA-H2A inh, Vif A3G, ALR H2O2 inh, Beta2AR agonist, Calb FLC
Shown for Cc1ccc2c(c1)NC(=O)C(CC(=O)NCCN(CC(C)C)CC(C)C)O2 (stereo not given) → -1.4, -0.3, 3.2, 3%, -5, 14, -5
Shown for Cc1cc(C)nc(N/N=C/c2cc3c(cc2[N+](=O)[O-])OCO3)n1 → -4.3, 0.7, -1.3, 0%, -2, -3, ?
Shown for Cc1ccc(C(=O)n2cnnc2N)cc1 → 2.6, 1.0, -2.3, 5%, 42, -2, -3

(more compounds)
SMILES	RanGTP-Impb inh	HNF4A DNA FP	LANA-H2A inh	Vif A3G	ALR H2O2 inh	Beta2AR agonist	Calb FLC
Cc1cccc(C)c1NC(=O)CCCSc1nnc(-c2ccco2)n1-c1ccccc1	-3.4	-0.6	8.9	-1%	-2	6	6
CC(C)C[C@@H]1CN=C(N)N1C[C@@H]1CCCN1C[C@@H](C(C)C)N1C[C@@H](Cc2ccccc2)N(CCCC2CCCC2)C1=N	·	3.0	·	-4%	·	-2	·
Cc1cccc(C)c1NC(=O)CNC(=O)COC(=O)c1ccc(Cl)s1	·	-2.0	0.6	·	-2	-4	·
O=c1sc2ccccc2c(N2CCN(c3ccccc3)CC2)c1[N+](=O)[O-]	0.3	2.9	4.5	-2%	17	-13	8
CN(CC(=O)N1CCCC1)S(=O)(=O)c1ccc(Cl)cc1	-1.4	-2.8	1.9	28%	-2	-4	-20
O=C(O)c1cccc(NC2=C(n3nnc4ccccc43)C(=O)c3ccccc3C2=O)c1	3.0	-5.2	2.2	7%	-50	-2	-1
N/C(=N\c1nc(CSc2ccc(Cl)cc2)cc(=O)[nH]1)Nc1ccccc1C(F)(F)F	2.4	-5.2	2.2	-2%	-7	13	-3
Cc1cccc(N2C(=O)C=CC2=O)c1	·	2.6	·	-12%	·	3	·
O=C(N/N=C/c1cccnc1)c1ccccc1Br	1.9	0.5	5.0	-5%	-1	13	-2
COC(=O)c1scc(S(=O)(=O)C(C)(C)C)c1-n1cccc1	1.6	1.2	-3.7	-4%	-7	1	3
CCOc1ccc(/C=C2\SC(=S)N(N3C(=O)C4CC4C3=O)C2=O)cc1 (stereo not given)	2.5	-0.6	-4.3	0%	-15	84*	2
O=C(Nc1ccccn1)C1CCN(S(=O)(=O)c2cccc3nonc23)CC1	3.2	-2.6	1.3	1%	2	1	-16
N#Cc1ccc(N/N=C/c2ccccc2)c([N+](=O)[O-])c1	-0.6	4.1	-4.8	13%	·	1	2
Cc1ccc(-c2nn(-c3cccc(F)c3)cc2CN2CCN(c3ccccn3)CC2)o1	7.4	1.5	1.9	1%	4	3	2
COc1cc(C)c(S(=O)(=O)n2ccc(C)n2)cc1C	5.5	-1.6	-1.2	-8%	-4	3	-3
CC(C)NC(=O)c1ccc2c(c1)S(=O)(=O)c1ccccc1C2=O	-0.4	5.0	-1.5	0%	-3	-15	2
COc1ccc(C(=O)N/C(=C\c2ccco2)C(=O)NCCN2CCOCC2)cc1	-2.7	1.8	-1.2	·	1	6	5
COc1cccc(N2C(=O)C3CCCN3C2c2cccs2)c1 (stereo not given)	2.8	2.0	2.4	·	-2	0	-25
CN(CC(=O)NCc1ccncc1)S(=O)(=O)c1ccc2ccccc2c1	?	-3.6	2.7	1%	-4	0	-33
